Choline anaer gr – blocks anaerobic gram-negative growth on choline; Gram-negative bacterium anaerobic choline minimal medium, absorbance growth; active compounds read low; many inactives read as strong as hits in the columns shown; calls only; 55,000 compounds, 0.2% hits; AID 1963822;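 active = growth z-score on choline under -2 at 7 or 20 h with little or no fall on glycerol, limits in tiers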;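 note: stock transfer was 300 nL into about 50 µL; the organism is E. coli; final concentration not given here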
Choline anaer gr early – further read-out of Choline anaer gr, marked with its call; z-score; measured here: choline growth z-score, timepoint 1;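 score of optical density at 7 h as mean of two plates; lower means less growth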
Numbers without * were called inactive; i = inactive; + = active, no number.

Values in the order: Choline anaer gr, Choline anaer gr early
- Cc1ccc(NC(=O)N2CCN(Cc3nc(-c4ccccc4)oc3C)CC2)cc1
  i, -1.4
- O=S(=O)(c1cc(-c2nnc(C3CCC3)o2)co1)N1CCN(c2ccccc2)CC1
  i, 1.5
- O=C1OC[C@@H](Cc2cccc(O)c2)[C@@H]1Cc1cccc(O)c1
  i, 0.67
- CS(=O)(=O)N(Cc1nnc(SCC(=O)N2CCCC2)n1-c1ccccc1)c1ccc(F)cc1
  i, -1.1
- CN(CCCNC(=O)C1CCCN1c1nnc(N2CCCC2=O)s1)C1CCCCC1 (stereo not given)
  i, 0.41
- O=C(CN1C(=O)CC(c2ccc(F)cc2)=Nc2cccnc21)NCc1ccccc1Cl
  i, -0.28
- O=C(Nc1ccc(-c2nnc(-c3ccccc3)o2)cc1)Nc1ccccc1Cl
  i, 1.1
- CNC[C@H](O)c1ccc(O)c(O)c1
  i, 0.53
- O=C(CCc1nc(-c2ccc(N3CCCC3)cc2)no1)NCCC1=CCCCC1
  i, 0.3
- Cc1cc(C)n(C(=O)c2sccc2S(=O)(=O)N(C)c2ccc(C)c(F)c2)n1
  i, -0.81
- Brc1ccc(OCc2nn3c(-c4cccnc4)nnc3s2)cc1
  i, -0.16
- CCc1cccc(NS(=O)(=O)c2c(C)sc(C)c2-c2cc(C)[nH]n2)c1
  i, -1.1
- Cc1cc(Sc2ccc(NC(=O)Nc3ccc(F)cc3F)cc2)n2ncnc2n1
  i, 0.47
- CC(=O)N(O)CCCCCNC(=O)CCC(=O)N(O)CCCCCNC(=O)CCC(=O)N(O)CCCCCN
  i, -2.1
- c1cc2nncn2nc1NC1CCCC1
  i, -0.77
- COc1ccc(CNC(=O)c2ccc(-n3c(=O)c(=O)n(Cc4ccccc4)c4cccnc43)cc2)cc1
  i, -1
- Cc1nc(N2CCCCC2)[nH]c(=O)c1CCC(C)C
  i, -1.1
- O=C(CN1c2ccccc2NC2=C(C(=O)CCC2)C1c1cccs1)NC1CCCCC1 (stereo not given)
  i, -0.29
- Cc1nn(CCCC(=O)Nc2cccc(Cl)c2)c(=O)c2nn(-c3ccccc3)c(C)c12
  i, 1.3
- CCOc1ccc(-c2n[nH]c3c2cnc2ccc(F)cc23)cc1
  i, 0.54
- Cn1c(=O)n(C)c2cc(N3CCOCC3)c(NS(=O)(=O)c3ccc4c(c3)CCCC4)cc21
  i, -0.52
- CCOc1ccc2nc(-n3nc(C)c4c3NC(=O)CC4c3cc(Br)cs3)sc2c1 (stereo not given)
  i, -1.6
- CCc1cc(C(=O)N2CCC(C)CC2)no1
  i, -0.23
- O=S(=O)(NC1CCCC1)c1ccc(N2CCCCS2(=O)=O)cc1
  i, -0.87
- Cc1c(C(=O)O)sc2ncnc(NCCc3ccsc3)c12
  i, 0.88
- COc1cc(NC(=O)c2ccc(NC(=O)N3CCSc4ncccc43)cc2)cc(OC)c1
  i, -0.16
- Cn1c(=O)c(=O)n(CC(=O)N2CCCCC2)c2cccnc21
  i, 1.1
- Cc1ccc(NC(=O)c2sc3nc4n(c(=O)c3c2C)CCCCC4)c(Br)c1
  i, 1.8
- Cc1cccc(C)c1NCc1cc(=O)n2[nH]c(-c3ccc(C(C)(C)C)cc3)nc2n1
  i, -0.25
- CC(C)C(=O)NCCCc1nc2ccccc2n1C
  i, 0.21
- CCCOc1ccc(C2CC(=O)Nc3c2cnn3-c2ccc3nnc(C)n3n2)cc1 (stereo not given)
  i, -0.54
- O=C(N1CCN(c2nnc3ccc(Cl)cn23)CC1)C1(c2ccccc2)CC1
  i, 0.1
- COc1cc(C2Nc3ccc(F)cc3[C@H]3OCCC[C@@H]23)cc(Cl)c1OC (stereo not given in full)
  i, 0.54
- COc1ccc(NC(=O)CN2C(=O)C(C)(C)c3cc(S(=O)(=O)N4CCCC4)ccc32)cc1
  i, -0.15
- CN(C)c1cc(OC2CCN(C(=O)c3cccn3C)C2)ncn1 (stereo not given)
  i, 0.42
- Cc1cc(C2CCCN2C(=O)NCCC(C)C)no1 (stereo not given)
  i, -1.5
- CCCCN(C)S(=O)(=O)c1ccc2c(c1)CCN2C(=O)CCC(=O)N1CCCC1
  i, -1.3
- COc1ccc(-c2nc(Nc3cccc(Cl)c3)c3ccccc3n2)cc1
  i, 2.1
- O=S(=O)(NC1CCCCCC1)c1ccc(-c2cc(C(F)(F)F)on2)o1
  i, -0.28
- Cc1cccc(CSc2nnc3c(S(=O)(=O)N4CCCCC4)cccn23)c1
  i, -0.58

Three entries from above, with values ahead of the structure.
Choline anaer gr	Choline anaer gr early	Structure
i	-1.3	CCCCN(C)S(=O)(=O)c1ccc2c(c1)CCN2C(=O)CCC(=O)N1CCCC1
i	2.1	COc1ccc(-c2nc(Nc3cccc(Cl)c3)c3ccccc3n2)cc1
i	-0.28	O=S(=O)(NC1CCCCCC1)c1ccc(-c2cc(C(F)(F)F)on2)o1

Next entries follow.
Values in the order: Choline anaer gr, Choline anaer gr early
- CC(=O)Nc1ccccc1-n1cccc1
  i, 0.94
- Cc1cc(C)cc(NC(=O)Nc2ccc(-c3nnc(-c4ccccc4)o3)cc2)c1
  i, 0.59
- O=c1cc(-c2cccc(Cl)c2)[nH]c2nc3ccccc3n12
  i, -0.8
- CCCCCCCCCCCCCCCCO
  i, 0.67
- COc1ccc(OCC(=O)N2CCCC(C)(C(=O)NCc3cccc(F)c3)C2)cc1 (stereo not given)
  i, -0.41
- CC(C)CCN1C(=O)c2nc3ccccc3n2CC1(C)C(=O)NC1CCC(C)CC1 (stereo not given)
  i, -0.45
- O=C(Cn1c(=O)c(CCC(=O)NC2CCCC2)nc2ccccc21)Nc1ccc(F)cc1
  i, -0.91
- O=CC(O)C(O)C(O)CO (stereo not given)
  i, 0.15
- O=S(=O)(Nc1ccccc1-c1ccc2ccccc2n1)c1ccc(Cl)cc1
  i, 0.95
- Cc1ccc(O)c(-c2ccnc3cc(-c4ccc(Cl)cc4)nn23)c1
  i, 1.6
- O=C1COc2ccc(S(=O)(=O)N3CCN(C(=O)Nc4ccccc4)CC3)cc2N1
  i, -1.2
- COc1ccc(C(=O)N2c3cc(CNC(=O)c4cccnc4)ccc3CC2C)cc1 (stereo not given)
  i, -0.55
- CCCN1C(=O)c2c(C(=O)NCCN3CCOCC3)ncn2CC1(C)C(=O)NCCC(C)C (stereo not given)
  i, -1.2
- COc1ccc(CNC(=O)c2ccc(S(=O)(=O)c3ccc(C)c(C)c3)nc2)c(OC)c1
  i, 2.4
- Cc1cc2[nH]c(=O)[nH]c2cc1NC(=O)c1ccccc1C
  i, -0.55
- COCCCNC(=O)CC1CCN(S(=O)(=O)c2cccs2)CC1
  i, -1.2
- O=S(=O)(c1ccccc1)c1nnn2c1nc(NCc1ccccc1Cl)c1ccccc12
  i, 0.07
- Cn1c(=O)c(=O)n(C)c2cc(Oc3ccccc3)c(NS(=O)(=O)c3ccc(Cl)cc3)cc21
  i, -0.4
- O=C(CN1C(=O)CCc2cc(S(=O)(=O)N3CCCCC3)ccc21)N1CCCCC1
  i, 0.14
- CC1Cc2ccccc2N1C(=O)CN1C(=O)C(C)(C)c2cc(S(=O)(=O)N3CCCC3)ccc21 (stereo not given)
  i, -0.58
- Cc1ccc(CNc2nc3nc(C)cc(C)n3n2)cc1
  i, -0.76
- CNC(=O)C1CCC(Cn2c(=O)c3sccc3n(CC(=O)NC3CCCCC3)c2=O)CC1 (stereo not given)
  i, -0.68
- Cc1ccc(N2CC(c3nc(-c4cccc(NC(=O)NC(C)C)c4)no3)CC2=O)cc1C (stereo not given)
  i, 0.45
- Cc1ccc(C(=O)Nc2ccc(SCc3cc(=O)n4c(ncn4C(C)C)n3)cc2)cc1F
  i, 1
- CC(C)CC1N=C2c3ccccc3N=C(SC(C)C(=O)Nc3ccccc3)N2C1=O (stereo not given)
  i, -0.32
- COC(=O)CCSCc1ccc(-c2onc(C)c2NC(=O)OC(C)c2ccccc2Cl)cc1 (stereo not given)
  i, 1.2
- Cc1ccc(C)c(N2CCN(C(=O)c3ccc(Cn4c(=O)c5cccn5c5cccnc54)cc3)CC2)c1
  i, 1.2
- O=c1c2ccccc2n2c(=O)n(Cc3ccccc3F)nc2n1CCc1ccccc1
  i, 0.28
- COc1ccc(Br)cc1-c1nc(Cn2nc(C)c3c(C)onc3c2=O)c(C)o1
  i, 0.09
- O=C(NCCCN1CCN(c2ccc(F)cc2)CC1)c1csc(-c2ccncc2)n1
  i, -1.7
- CCc1ccc2c(c1)-c1ccccc1S(=O)(=O)N2CC(=O)NCC(C)C
  i, 0.4
- Cc1ccc(C)c(S(=O)(=O)N2C[C@H]3CN(S(=O)(=O)c4ccccc4)C[C@@H](C2)O3)c1
  i, 1.3
- O=C(Cc1ccc(NC(=O)N2CCCCc3ccccc32)cc1)Nc1cccc(Cl)c1
  i, 1.4
- CN(Cc1ccccc1)S(=O)(=O)c1ccc(-c2nc(C#N)c(N3CCCC3)o2)cc1
  i, 0.61
- COc1ccc(-c2cc3c(=O)n(CC(=O)Nc4cccc(C)c4C)ncn3n2)cc1
  i, 0.63
- Cc1cccc(-c2ccc(Nc3cccc(C(=O)NC4CCCC4)c3)nn2)c1
  i, -0.43
- O=c1oc2cc(O)ccc2cc1-c1ccc(F)cc1
  i, 0.19
- O=S(=O)(Nc1ccccc1O)c1cc(-c2nnc(-c3ccccc3)o2)ccc1F
  i, 0
- CCCCNC(=O)Cc1c(C)nc2nc(-c3ccc(C(C)(C)C)cc3)nn2c1C
  i, -1.3
- CCc1onc(C)c1C1CCCN1Cc1ccc(C)c(C)c1 (stereo not given)
  i, -1.6
- COc1ccc(NC(=O)c2ccc(Cn3c(=O)[nH]c4cc(OC)c(OC)cc4c3=O)cc2)cc1OC
  i, -0.32
- CCCc1noc(-c2cc(S(N)(=O)=O)ccc2OC)n1
  i, -1.1
- COc1cc2c(cc1OC)C(c1ccncc1)CC(=O)N2 (stereo not given)
  i, -1.4
- CC1CCN(S(=O)(=O)c2ccc3c(ccn3CC(=O)NC(C)c3ccccc3)c2)CC1 (stereo not given)
  i, -0.55
- CCCn1c(=O)c2sccc2n2c(SCC(=O)Nc3cc(Cl)ccc3OC)nnc12
  i, 2.1
- Clc1ccc(-c2noc(Cc3nc(-c4ccccc4)cs3)n2)cc1
  i, 0.72
- COCCn1cc(CCNC(=O)Nc2cc(F)c(F)c(F)c2)c2cccnc21
  i, -0.73
- O=C(Cn1c(=O)n(Cc2ccccc2)c(=O)c2ncccc21)N1CCC(Cc2ccccc2)CC1
  i, 0.95
- CCOC(=O)c1sc2ncnc(Oc3ccccc3F)c2c1C
  i, -0.12
- Fc1ccc(-c2noc(C3CCCCN3)n2)cc1 (stereo not given)
  i, -3.6

Looked up by compound from the entries so far:
Values in the order: Choline anaer gr, Choline anaer gr early
- Cc1ccc(O)c(-c2ccnc3cc(-c4ccc(Cl)cc4)nn23)c1
  i, 1.6
- Cc1cc(C)cc(NC(=O)Nc2ccc(-c3nnc(-c4ccccc4)o3)cc2)c1
  i, 0.59
- COCCn1cc(CCNC(=O)Nc2cc(F)c(F)c(F)c2)c2cccnc21
  i, -0.73
- COc1ccc(CNC(=O)c2ccc(-n3c(=O)c(=O)n(Cc4ccccc4)c4cccnc43)cc2)cc1
  i, -1
- O=S(=O)(NC1CCCC1)c1ccc(N2CCCCS2(=O)=O)cc1
  i, -0.87
- Brc1ccc(OCc2nn3c(-c4cccnc4)nnc3s2)cc1
  i, -0.16

Next part.
Values in the order: Choline anaer gr, Choline anaer gr early
- CCCC(=O)Nc1ccc(-c2ccc(S(=O)(=O)CC)nn2)cc1
  i, -1
- CCOC(=O)c1ccccc1NC(=O)CSc1c(C(C)C)cnc2c1c(=O)n(C)c(=O)n2C
  i, -0.11
- Cc1ccc(CSc2nc3ccccc3n3c(C)nnc23)c(C)c1
  i, 1.1
- Cc1sc(N)nc1-c1ccc(Cl)cc1
  i, -0.89
- CCn1ccc(C(=O)N2CCCC2c2cc(C(C)C)no2)n1 (stereo not given)
  i, -0.28
- CCCCn1c(=O)c2sccc2n2c(CCC(=O)NC3CCCC3)nnc12
  i, 0.88
- Cc1ccc(NC(=O)N2CCN(C(=O)c3nsc4ccccc34)CC2)cc1Cl
  i, 2.3
- COCCNC1=NCCNC12CCN(S(=O)(=O)c1ccc(C(C)C)cc1)CC2
  i, -0.85
- CC1(C(=O)NC2CCCCC2)Cn2c(ccc2-c2ccccc2)C(=O)N1CCCN1CCOCC1 (stereo not given)
  i, 0.19
- Cc1nn(Cc2noc(-c3ccccc3Br)n2)c(C)c1S(=O)(=O)N1CCCC1
  i, 0.39
- CN(Cc1ccsc1)C(=O)C1CCC1
  i, -1.6
- Cc1ccc(Nc2c(C(=O)N3CCOCC3)cnc3ccccc23)cc1
  i, -0.28
- O=C(CSc1nnc2ccc(-c3ccncc3)nn12)NC1CCCC1
  i, -0.28
- COc1cccc(CN2C(=O)CC(c3ccccc3)=Nc3ccccc32)c1
  i, 0.99
- O=C(O)C1CCCN1C(=O)Nc1ccccc1F (stereo not given)
  i, -1.6
- c1cncc(-c2nnc(C3CCCC3)o2)c1
  i, -0.51
- O=C(Nc1ccccc1Br)N1CCC(c2nc(-c3ccccc3)no2)CC1
  i, 0.56
- Cc1cc(N2CCCC2)nc(N2CCN(S(=O)(=O)c3ccc(Br)cc3)CC2)n1
  +, -2.3*
- COc1ccc(Cl)cc1NC(=O)C(C)n1nnc2sc(-c3ccccc3)cc2c1=O (stereo not given)
  i, 1.2
- Nc1c(C(=O)NCc2ccccc2)nsc1C(=O)NCc1ccccn1
  i, -1
- O=c1c(O)c(N2CCN(c3ccccc3F)CC2)c1=O
  i, -0.45
- CN1CCN(c2ncncc2N2CCC(C(=O)NCCC3=CCCCC3)CC2)CC1
  i, -1.4
- CC1(C)Cc2nc3sc4c(=O)n(CC(=O)NCC5CCCO5)cnc4c3cc2CO1 (stereo not given)
  i, -0.62

Not all compounds are listed; the hit share may differ from the screen's.
